# miR-21 reporter: raises the signal of a miR-21 reporter. HeLa miR-21 FLuc reporter, luciferase, 48 h. Potency, µM (series often up to 38.3 µM), for the others: top-dose reporter change, positive = more light. 340,000 tested, under 10 active; active = well fitted rising curve with a large enough effect; inconclusive = small, poorly fitted or top-dose-only effect; inactive = no such curve, though single readings can be large or run the other way;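 also: % of control where 0% means no effect; miR-21 action dims this reporter so a rising signal means less miR-21 action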
#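 Compounds were titrated across several concentrations (up to approximately 40 uM) and incubated 48 hours with HeLa miR-21-FLuc reporter cells (miR-21 target sequence downstream of FLuc, endogenous miR-21). Readout was firefly luciferase luminescence after lytic detection reagent.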
# Rango complex inh: prevents formation of the Rango-importin beta complex; Q14974; Rango CFP/YFP FRET sensor + importin beta, 45 min; Potency, µM (series often up to 92.2 µM), without a hit: top-dose inhibition of complex formation; 0.031% of 340,000 active; AID 540263; active = rising FRET ratio curve, often small or poorly fitted; inconclusive = mostly compound fluorescence or quenching in the first reads; inactive = flat curves in all reads;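 also: potency is read from the fitted curve at half-maximal effect; 0% = DMSO wells and 100% = buffer wells lacking importin beta; nearly all actives have a fitted effect of over 15% in size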
#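 FRET biosensor (snurportin 1 IBB flanked by EYFP and cerulean), 50 nM, with compound 5 min, then 0.125 microM importin beta in PBS, 1 mM DTT, 0.02% Tween-20, 0.1% BSA. CFP/YFP ratio read after 45 min at room temperature; pre-read flags interference.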
# Rango dissoc inh: prevents RanGTP from dissociating the Rango-importin beta complex; O95149+P62826; Biochemical FRET Rango-importin beta, RanGTP-induced dissociation; Potency, µM (top dose mostly 46.1 µM), for the others: at the highest dose activity change, negative = inhibition; 0.071% of 340,000 active; active means falling FRET ratio curve, often poorly fitted, with flat reads before Ran was added; inconclusive means other falling curves, or compound fluorescence or quenching; inactive means flat or rising ratio curve;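 also: potency is read from the fitted curve at half-maximal effect; % of control where 0% means no effect; nearly all actives have a fitted effect of over 45% in size; -100% = wells without RanGTP and RCC1; the record marks most hits as doubtful in a second field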
#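 Rango (0.1 uM)–importin beta (0.25 uM) complex; RanGTP-RCC1 trigger; 45 min RT; CFP/YFP FRET read.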
# GLA inh pH 4.5: blocks human alpha-galactosidase A at pH 4.5 | P06280 | purified enzyme, 4-MU-alpha-Gal fluorescence, pH 4.5 | activity change, negative = inhibition, % at 105 µM | 230,000 tested, under 10 active | AID 1467; inconclusive = small, poorly fitted or top-dose-only inhibition, or a rising curve; inactive = flat fitted curve, though single readings scatter; no compound was filed as active;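 also: 0% = full activity with enzyme and -100% = basal without enzyme; dose as in the result columns while the protocol names 77 µM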
# Target sequence (P06280 whole entry, looked up): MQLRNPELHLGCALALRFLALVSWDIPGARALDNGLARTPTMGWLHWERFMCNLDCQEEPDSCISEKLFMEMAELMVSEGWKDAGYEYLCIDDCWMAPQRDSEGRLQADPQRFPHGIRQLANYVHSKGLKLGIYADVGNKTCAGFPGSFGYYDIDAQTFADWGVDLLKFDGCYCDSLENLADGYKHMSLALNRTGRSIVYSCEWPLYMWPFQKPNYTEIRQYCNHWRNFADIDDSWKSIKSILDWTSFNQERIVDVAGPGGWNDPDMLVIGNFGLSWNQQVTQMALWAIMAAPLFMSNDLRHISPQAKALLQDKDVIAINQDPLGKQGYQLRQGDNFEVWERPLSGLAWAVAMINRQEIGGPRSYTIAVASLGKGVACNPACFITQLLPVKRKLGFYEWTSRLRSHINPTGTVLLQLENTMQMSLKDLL
# * = called active by the depositor; ? = inconclusive; . = no result given; & = joins results of further samples. The list is partial. The share of hits here may be higher or lower than overall.
# Preview, 2 compounds:
SMILES,miR-21 reporter,Rango complex inh,Rango dissoc inh,GLA inh pH 4.5
c1ccc(CN2CCOCCOCCOCC2)cc1,-10%,-4.5%,10%,-3
NC(=O)c1ccc(NC(=O)C2CC(=O)N(c3ccc4c(c3)OCCO4)C2)cc1 (stereo not drawn),.,-0.1%,-5%,.

# The whole of this part, from the start:
SMILES,miR-21 reporter,Rango complex inh,Rango dissoc inh,GLA inh pH 4.5
c1ccc(CN2CCOCCOCCOCC2)cc1,-10%,-4.5%,10%,-3
NC(=O)c1ccc(NC(=O)C2CC(=O)N(c3ccc4c(c3)OCCO4)C2)cc1 (stereo not drawn),.,-0.1%,-5%,.
COc1ccc(NC(=O)N2CCOCC2)cc1OC,-5%,-0.1%,13%,-3
CCn1c2ccccc2c2cnc(N=CN(C)C)c(C#N)c21,9%,-0.2%,-12%,-1
C=Cc1ccc2c(c1)OCCOCCOCCOCCOCCO2,0%,-0.2%,1%,.
CCOc1cc(C(=O)NC(C)CCc2ccccc2)cc(OCC)c1OCC (stereo not drawn),-1%,4.3%,19%,.
O=C(NCCS(=O)(=O)N1CCN(c2ccccc2)CC1)C1CC(=O)N(c2ccc(F)cc2)C1 (stereo not drawn),0%&3%,-2.1%,6%,.
CCCCn1c(CN2CCN(c3cccc(Cl)c3)CC2)nc2c1c(=O)n(C)c(=O)n2C,5%,0.1%,-2%,-20
O=C(CNC(=O)c1ccccc1Cl)OC1CCOC1=O (stereo not drawn),3%,-1.3%,2%,3
O=c1cc(N2CCOCC2)[nH]c(=O)n1-c1ccc(Cl)cc1,-14%,-1.1%,8%,0
O=C(Nc1ccc(F)cc1)c1ccc2snnc2c1,-29%,0.5%,7%,.
CC(=O)Nc1ccc(NC(=O)CS(=O)(=O)c2cn(CC(=O)N3CCCCC3)c3ccccc23)cc1,.,2.8%,19%,.
COc1ccc(C(C)(C)C)cc1NC(=O)c1[nH]c(C)c(C(C)=O)c1C,-8%,-4.2%,11%,.
Cc1ccc(C)c(NC(=S)/C(=C(\[O-])c2ccc(OC(F)F)cc2)[n+]2ccccc2)c1,0%,0.7%,-1%,-11
Cc1ccc(C)c(OCc2nc(-c3cccnc3)no2)c1,-44%,-3.3%,7%,-1
COc1ccc(-c2nc(NC(=O)Cn3c(=O)oc4ccccc43)sc2C)cc1,1%,-0.8%,-6%,4
O=C(CNS(=O)(=O)c1ccccc1)NNC(=O)C(Cl)Cl,-1%,3.6%,15%,-2
O=C(COC(=O)C1CCC1)c1c[nH]c2ccccc12,.,-0.2%,6%,.
O=C(NCCc1ccc(F)cc1)C1CCN(C(=O)Nc2ccccc2)CC1,.,-1.3%,-8%,.
CCN(CC)c1ncnc2c1cnn2Cc1ccc(Cl)cc1,-20%,-0.9%,-2%,3
O=C(O)C1(c2ccccc2)CCC(Nc2ccccc2)C1 (stereo not drawn),-7%,2.2%,0%,.
Nc1cccc(S(=O)(=O)Nc2ccccc2)c1,0%,0.2%,-1%,5
CCNC(=O)N1CCNC(=O)C1CC(=O)OC (stereo not drawn),0%,-0.2%,0%,-2
Cc1c(C(=O)O)cc(C(C)(C)C)n1CCSCCO,0%,-4.8%,11%,0

# Compound profiles (already shown).
# O=C(COC(=O)C1CCC1)c1c[nH]c2ccccc12 is entered as miR-21 reporter = .; Rango complex inh = -0.2%; Rango dissoc inh = 6%; GLA inh pH 4.5 = .
# CCN(CC)c1ncnc2c1cnn2Cc1ccc(Cl)cc1 is entered as miR-21 reporter = -20%; Rango complex inh = -0.9%; Rango dissoc inh = -2%; GLA inh pH 4.5 = 3

# Next part.
SMILES,miR-21 reporter,Rango complex inh,Rango dissoc inh,GLA inh pH 4.5
Cc1cc(Cl)ccc1C(=O)C1CCCN(C(=O)CN2CCOC2=O)C1 (stereo not drawn),-21%,0.6%,2%,.
Cc1ccc(NC(=S)NNC(=O)c2nn(C)cc2Cl)cc1,-35%,3.5%,-3%,1
NS(=O)(=O)c1ccc(Cl)c(S(N)(=O)=O)c1,.,0.2%,7%,.
Cc1cc(C)nc(NS(=O)(=O)c2ccc(NC(=O)Cc3ccccc3)cc2)n1,-6%,0.3%,11%,-7
Cc1ccc(F)cc1NC(=O)C1CC(=O)N(CCc2ccccc2)C1 (stereo not drawn),-4%,0.4%,-5%,-4
COc1cc(/C=C/C(=O)OCC(=O)c2ccc(S(=O)(=O)N3CCCCC3)cc2)cc(OC)c1OC,.,3.9%,12%,.
C/C(=C\C=C\c1ccccc1)C(=O)c1c(C)cc(C)[nH]c1=O,-7%,0.7%,-10%,2
Cc1ccn2cc(-c3cccc([N+](=O)[O-])c3)nc2c1,0%,-0.8%,17%,7
CCOc1ccccc1CNC(=O)CCCn1ccc2cc(S(=O)(=O)N3CCCC3)ccc21,10%&17%,0.0%,-15%,.
O=c1c2c3c(sc2nc(NCCOCCO)n1Cc1ccco1)CCCCC3,9%,5.3%,12%,-19
CCCNC(=O)NC(=O)CSc1nnc(-c2c[nH]c3ccccc23)o1,-3%,0.7%,0%,.
C=CCN(c1ccc(Cl)cc1)S(=O)(=O)c1cccc(C(=O)OCC(=O)N(C)C)c1,-2%,-1.2%,0%,-15
CC(C)(C)c1ccc(S(=O)(=O)N2CCN(C(=O)C3CCC3)CC2)cc1,0%,-2.7%,3%,.
C[C@H]1COC(=O)[C@H](NC(=O)OCC2c3ccccc3-c3ccccc32)C/C=C\C[C@H](CC(=O)N(CCO)Cc2ccccc2)C(=O)N1,.,0.0%,15%,.
CCOc1cc2c(cc1OCC)C(c1ccc(OC)c(OC)c1)N(c1ccc(C(=O)O)cc1)C(=O)C2 (stereo not drawn),-10%,3.0%,0%,-3
Cc1ccc(S(=O)(=O)N2CCN(C(=O)COC(=O)c3cccnc3Cl)CC2)c(C)c1,.,-0.7%,-3%,.
O=[N+]([O-])c1ncccc1OCc1ccc(-c2ccccc2)cc1,-36%,-1.9%,-16%,.
CCn1c(SCC(=O)NCc2ccccc2)nnc1-c1cccnc1,-2%,-0.2%,7%,11
NC(=O)c1ccc(NC(=O)c2cc(S(=O)(=O)N3CCCCC3)ccc2N2CCOCC2)cc1,.,-0.5%,-16%,.
N#CC(C#N)C(c1ccsc1)c1c(-c2ccccc2)[nH][nH]c1=O (stereo not drawn),-2%,1.8%,-18%,-3
c1ccc2c(c1)CCCN2Cc1nnnn1C1CCCC1,-8%,0.0%,-19%,-11
COc1ccc(OC)c(NC(=O)[C@H]2CC=CC[C@H]2C(=O)O)c1,-2%,7.3%,6%,-6
COc1ccc(Cl)cc1NC(=S)NC1CCCC1,1%,-3.0%,14%,.
CN(CC(=O)Nc1ccc(Cl)c(C(F)(F)F)c1)Cc1cc(=O)n2ccsc2n1,3%,-1.1%,12%,-8
COc1ccc(Nc2nc(S(=O)(=O)c3ccc(C)cc3)c(Cl)s2)cc1,14%,-5.0%,11%,-2
CSCCC(NC(=O)c1ccc([N+](=O)[O-])cc1Cl)C(=O)OCC(=O)NCCCc1ccccc1 (stereo not drawn),-1%,0.4%,8%,-3
NC(=NC1CCCCC1)NS(=O)(=O)c1ccccc1,5%,-0.4%,18%,.
CC(NCC1COc2ccccc2O1)C1COc2ccccc2O1 (stereo not drawn),-4%,2.8%,-6%,.
CCCCNC(=O)c1ccc(-n2c(=S)[nH]c3ccccc3c2=O)cc1,1%,0.8%,-3%,1
CSCCC(NC(=O)c1ccc([N+](=O)[O-])cc1Cl)C(=O)OCC(=O)NCC(F)(F)F (stereo not drawn),1%,-1.5%,21%,2
CCCCC(CC)CNC(=O)CN(C)S(=O)(=O)c1cccc2nsnc12 (stereo not drawn),8%,-1.3%,4%,2
O=C1CSC(c2ccccc2F)N1c1ccccc1F (stereo not drawn),-3%,-2.2%,11%,.
Cc1ccccc1CN1CCCC(C(=O)N2CCCCC2)C1 (stereo not drawn),1%,0.1%,5%,.
COCCCN1C(=O)C(=O)/C(=C(/O)c2ccc(S(=O)(=O)N3CCCCC3)cc2)C1c1ccc(OC)cc1 (stereo not drawn),0%,1.6%,-2%,.
O=C(CN1C(=O)c2ccccc2S1(=O)=O)N1CCN(Cc2ccc3c(c2)OCO3)CC1,-1%,-1.9%,-4%,-12
CCOC(=O)c1c(C)[nH]c(C(=O)OCC(=O)N(CC)c2c(N)n(Cc3ccccc3)c(=O)[nH]c2=O)c1C,.,-7.2%,-13%,.

# An excerpt from above, limited to miR-21 reporter.
mol	miR-21 reporter
CCCCC(CC)CNC(=O)CN(C)S(=O)(=O)c1cccc2nsnc12 (stereo not drawn)	8%
NC(=NC1CCCCC1)NS(=O)(=O)c1ccccc1	5%

# Further results
SMILES,miR-21 reporter,Rango complex inh,Rango dissoc inh,GLA inh pH 4.5
COc1cccc(Nc2n[nH]c(=S)s2)c1,-38%,5.0%,-5%,9
Cc1noc(C)c1COc1ccc(CC(=O)NCc2ccccc2)cc1,23%,2.3%,15%,-6
CCn1c(SCC(=O)NC(C)(C)C)nc(O)cc1=O,-2%,-0.6%,2%,2
CCOC(=O)C(NCCc1ccccc1F)(NC(C)=O)C(F)(F)F (stereo not drawn),-3%,0.2%,25%,-3
CC1CCN(c2cc(N(C)CCO)c([N+](=O)[O-])c3nonc23)CC1,2%,-1.0%,38%,-14
CCOc1ccc(C2NC(=O)C(C#N)=C(S)N2c2cccc(C)c2)cc1OC (stereo not drawn),0%,-3.2%,-22%,5
Cc1cc2occ(CC(=O)NC3(C)CCS(=O)(=O)C3)c2cc1C (stereo not drawn),-3%,-3.1%,-15%,.
COc1ccc(N2CCN(C(CNC(=O)c3cccc(Cl)c3)c3cccnc3)CC2)cc1 (stereo not drawn),-2%,0.0%,23%,12
C=CCOc1ccc(C2OC34CCCCC3C(C#N)(C#N)C2(C#N)C(=N)O4)cc1 (stereo not drawn),-1%,?,?,?
COc1cc(C(=O)NCC(C)C)cc(OC)c1OC,-3%,1.5%,-6%,10
CCOCCn1c(CN2CCN(C(=O)c3ccco3)CC2)nc2c1c(=O)n(C)c(=O)n2C,1%,-3.7%,4%,.
NC(=O)c1cc([N+](=O)[O-])ccc1NCc1ccc(C(=O)O)cc1,.,-2.9%,1%,.
Cc1nn(Cc2ccccc2)c(Cl)c1C(=O)NCCc1ccc(Cl)cc1,-22%,0.2%,-14%,2
O=C(CO/N=C/c1ccccc1OC(F)F)N1CCc2ccccc21,-17%,3.0%,-11%,-3
Cc1nccn1CC(=O)N/N=C/c1c[nH]c2ccccc12,13%,4.0%,7%,-2
Cc1cccc(-c2cccc(NC(=O)C3CCCN(C(=O)c4cccnc4)C3)c2)c1 (stereo not drawn),8%,4.7%,-16%,.
CC(C)NC(=O)COc1coc(CN2CCN(C(=O)c3ccco3)CC2)cc1=O,.,-1.2%,22%,.
CCN(CC)CCNC(=O)c1ccc(NC(=O)c2ccc(S(=O)(=O)N3CCCC3)cc2)cc1,.,-6.7%,-9%,.
O=C(Nc1ccc(Cl)cc1)NC1CCCCC1,-53%,-7.5%,-9%,2
CC1CCC(NC(=O)C2c3ccccc3C(=O)N2Cc2cccs2)CC1 (stereo not drawn),-8%,2.0%,-7%,6
CCOC(=O)c1c(C)n(C)c2ccc(OCCN(C)C)cc12,-4%,0.1%,2%,1
CCn1c(Cc2ccccc2)nnc1SCC(=O)c1c(N)n(C2CC2)c(=O)[nH]c1=O,.,-0.1%,1%,.
O=C(c1cccc(F)c1)N1CCN(C(=O)C(c2ccccc2)c2ccccc2)CC1,3%,0.9%,-2%,.
Cc1ccc(/C=N/NC(=O)COc2ccc(Cl)c(C)c2)o1,0%,4.4%,6%,.
COC(=O)c1cc2c(s1)-c1ccccc1CC2,-21%,1.8%,24%,18
CN1CCN(c2cc(C(F)(F)F)nc(-c3ccccn3)n2)CC1,-11%,-0.5%,11%,13
OC1C2CN3CCN(C2)CC1(Cc1ccccc1)C3 (stereo not drawn),-6%,6.5%,-5%,4

# 3 entries from above, ordered by the number in Rango dissoc inh, descending.
SMILES,miR-21 reporter,Rango complex inh,Rango dissoc inh,GLA inh pH 4.5
O=C(c1cccc(F)c1)N1CCN(C(=O)C(c2ccccc2)c2ccccc2)CC1,3%,0.9%,-2%,.
Cc1nn(Cc2ccccc2)c(Cl)c1C(=O)NCCc1ccc(Cl)cc1,-22%,0.2%,-14%,2
Cc1cccc(-c2cccc(NC(=O)C3CCCN(C(=O)c4cccnc4)C3)c2)c1 (stereo not drawn),8%,4.7%,-16%,.

# From PubChem BioAssay
